T. gondii HeLa = Toxoplasma gondii ME49Luc growth in HeLa cells, luciferase, no IFN-y, primary screen (AID 1259421). 6,400 tested, 9.6% active. activity change, negative = inhibition, %. T. gondii ME49Luc in HeLa, luciferase, 72 h, no IFN-y; stronger effect = lower value; reference of the scale and settings of repeat entries not given here; many of its hits are not listed in these tables;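 active means activity change below -70%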;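 further: about 20 µM from a 10 mM stock diluted 500-fold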
Active calls of the source: *. These rows are one share of the data, so the mix of outcomes need not match the whole.

| mol | T. gondii HeLa |
| --- | --- |
| COc1c2c(cc3c1OCO3)CC[N+](C)=C2 | -2.7 |
| C[C@]12C=CC(=O)C=C1CCC1C2CC[C@]2(C)C(=O)CCC12 (some centres not stated) | 3.6 |
| COc1cc2c(cc1O)CCNC2C (configuration not stated) | -2.8 |
| C[C@@]12N[C@@H](Cc3ccccc31)c1ccccc12 | 13.7 |
| C[C@]12CC[C@@H](O)C[C@@H]1CC[C@@H]1[C@@H]2CC[C@]2(C)[C@@H](C(=O)CO)CC[C@@H]12 | 8.8 |
| CCCCC/C=C\C/C=C\C/C=C\C/C=C\CCCC(=O)NCc1ccc(O)c(OC)c1 | 8.2 |
| CCN(CC)CCOC(=O)C(C)(c1ccccc1)c1ccccc1 | 15.3 |
| CC(=O)OCC(=O)[C@H]1CC[C@H]2[C@@H]3CC[C@H]4C[C@H](O)CC[C@]4(C)[C@H]3C(=O)C[C@]12C | -8.5 |
| Cc1cc(OC(=O)N2CCCCC2)c(C(C)C)cc1[N+](C)(C)C | -5.3 |
| CCC1(C)CC(=O)NC(=O)C1 | 3.4 |
| Oc1ccc2c3c1O[C@H]1c4oc5ccccc5c4C[C@@]4(O)C(C2)N(CC2CC2)CC[C@]314 | -2.8 |

A few values from the entries so far.
Result for C[C@]12C=CC(=O)C=C1CCC1C2CC[C@]2(C)C(=O)CCC12 (some centres not stated) in T. gondii HeLa: 3.6
Result for CCCCC/C=C\C/C=C\C/C=C\C/C=C\CCCC(=O)NCc1ccc(O)c(OC)c1 in T. gondii HeLa: 8.2
Result for CC(=O)OCC(=O)[C@H]1CC[C@H]2[C@@H]3CC[C@H]4C[C@H](O)CC[C@]4(C)[C@H]3C(=O)C[C@]12C in T. gondii HeLa: -8.5
Result for C[C@]12CC[C@@H](O)C[C@@H]1CC[C@@H]1[C@@H]2CC[C@]2(C)[C@@H](C(=O)CO)CC[C@@H]12 in T. gondii HeLa: 8.8
Result for C[C@@]12N[C@@H](Cc3ccccc31)c1ccccc12 in T. gondii HeLa: 13.7

Some of the entries so far, with each value named.
C[C@@]12N[C@@H](Cc3ccccc31)c1ccccc12
  T. gondii HeLa: 13.7

COc1c2c(cc3c1OCO3)CC[N+](C)=C2
  T. gondii HeLa: -2.7
